T cruzi repl = T. cruzi replication inhibition. T. cruzi beta-gal in NIH3T3, luminescence, 90 h. inhibition, % (test concentration not listed). 300,000 tested, 1.4% active. AID 1885;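 active = mean inhibition across valid replicates above about 55%, limit read from the data; inconclusive = mean below that limit but half or more replicates reach it; inactive = mean below it, under half of replicates reach it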;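 note: signal also drops with host cell toxicity which is not excluded here; 0% = plate median of DMSO wells and 100% = zero luminescence signal; higher percent means less beta-gal luminescence so fewer parasites; stock transfer was 50 nL into about 50 µL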
rRNA inh HTS = inhibits bacterial ribosomal RNA function over humanized ribosomes; E. coli WT GFP vs humanized-ribosome RFP mutants, fluorescence, 24 h; stronger effect = lower value; DMSO median 0, no signal -100; GFP signal change (wild-type ribosome), % (no concentration beside the values); 350,000 tested, 1.6% active;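 active = significant combined selectivity score with lowered wild-type GFP, culture density cut under 30%, mutant RFP and density less affected; inactive = any of these conditions unmet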; note: one replicate is shown; some compounds called inactive have numbers as strong as hits
UCH37 inh = inhibitors of human deubiquitinating enzyme UCH37; inhibition, % (test concentration not listed); 330,000 tested, 0.33% active; purified proteasome/UCH37, Ub-AMC cleavage fluorescence; AID 588478;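 active = mean of two replicates above 20%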;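 note: 0% = compound-free wells with enzyme and 100% = wells lacking proteasome; stock transfer was 100 nL into about 20 µL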
Target sequence (Q9Y5K5 whole entry, looked up): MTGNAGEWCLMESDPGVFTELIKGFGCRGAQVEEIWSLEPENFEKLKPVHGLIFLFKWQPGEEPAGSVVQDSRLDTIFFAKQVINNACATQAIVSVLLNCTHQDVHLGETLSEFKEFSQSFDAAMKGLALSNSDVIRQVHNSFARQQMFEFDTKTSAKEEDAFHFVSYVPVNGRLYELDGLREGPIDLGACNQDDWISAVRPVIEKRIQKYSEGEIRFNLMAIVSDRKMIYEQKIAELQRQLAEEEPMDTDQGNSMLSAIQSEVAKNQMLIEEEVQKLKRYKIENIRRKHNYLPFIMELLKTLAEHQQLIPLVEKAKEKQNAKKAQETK
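Signal – fluorescence, ex 355 nm, em 460 nm · System – Proteasome-bound UCH37 · Input – 0.15 nM proteasome as dispensed · Timing – 30 min preincubation with enzyme, 25 min cleavage at room temperature · Read-out basis – percent inhibition of cleavage signal versus uninhibited and no-proteasome wells · Medium – Tris-HCl pH 7.4 with ATP-MgCl2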
Beta cell apopt = beta cell apoptosis inhibition; INS-1E cytokine-induced death, ATP luminescence, 48 h; percent of positive-control rescue, neutral wells zero; protection from apoptosis, % (concentration not given with the values); 300,000 tested, 0.8% active; AID 435005;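 active = all replicates at 75% or more, or half of them and the mean; inconclusive = half reach 75% but not the mean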;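 note: 0% = cytokine-treated negative control wells and 100% = positive control rescue; higher means more ATP so stronger rescue from cytokine killing; wells of about 40 µL received 100 nL stock; the first replicate is given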
AF4-AF9 inh = blocks AF4 peptide binding to human AF9; P42568; AlphaScreen, biotin-AF4 peptide binding to FLAG-AF9; inhibition, % at 10 µM; 350,000 tested, 0.47% active;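 active = every replicate reaching a set inhibition limit, whatever the replicate mean, cut at about 25% in these data; inconclusive = mean inhibition reaches that limit but some replicates miss it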;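 note: 0% = plate neutral control median and 100% = total signal loss; the record names both 10 and 1 µM as test concentration; the first replicate is given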
Target sequence (P42568 whole entry, looked up): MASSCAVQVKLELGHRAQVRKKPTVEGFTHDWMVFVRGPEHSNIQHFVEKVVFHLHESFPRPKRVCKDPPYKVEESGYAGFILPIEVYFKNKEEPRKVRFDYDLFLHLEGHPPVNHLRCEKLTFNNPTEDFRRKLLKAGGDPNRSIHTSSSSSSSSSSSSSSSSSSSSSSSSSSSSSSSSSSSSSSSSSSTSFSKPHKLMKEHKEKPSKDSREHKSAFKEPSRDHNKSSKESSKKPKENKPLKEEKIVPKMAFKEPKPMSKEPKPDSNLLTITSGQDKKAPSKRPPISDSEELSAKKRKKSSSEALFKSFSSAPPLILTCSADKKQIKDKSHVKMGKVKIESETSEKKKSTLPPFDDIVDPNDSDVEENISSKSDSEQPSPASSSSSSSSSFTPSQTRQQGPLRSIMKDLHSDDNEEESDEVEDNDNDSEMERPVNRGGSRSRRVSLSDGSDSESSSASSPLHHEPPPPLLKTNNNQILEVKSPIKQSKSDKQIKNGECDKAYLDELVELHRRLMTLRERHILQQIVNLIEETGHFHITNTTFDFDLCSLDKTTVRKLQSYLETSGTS
Ecoli growth = blocks Escherichia coli growth; OD600, 23 h; stronger effect = lower value; OD600 absorbance (concentration not given with the values); 330,000 tested, 0.21% active; AID 1053175;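 active = OD600 absorbance below the run mean of sample wells minus 3.6 SD, in any replicate, cut at about 0.56 in these data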;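 note: stock transfer was 300 nL into about 60 µL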
Bfl-1 A1 inh = inhibitors of the anti-apoptotic protein A1, read as caspase activation. MEF A1-2A-BIM cells, Caspase-Glo 3/7 luminescence, 3 h; percent of clofoctol response, vehicle zero. caspase activation, % (test concentration not listed). 330,000 tested, 0.066% active;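 active = over half of replicate activation scores above 10%, or exactly half above 10 with the replicate mean above 10; inconclusive = replicate mean below 10 yet half the replicates above 10; inactive = over half of replicates below 10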;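 note: wells of about 30 µL received 50 nL stock; many hits fall short of the cut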
FGF22 binding = FGF22 (human) thermal shift binding; Q9HCT0; recombinant FGF22 thermal shift, SYPRO orange fluorescence; percent of sucrose octasulfate shift, DMSO zero; calls only at 9.99 µM; 340,000 tested, 1.5% active; AID 651658;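 active = melting point raised past a set limit in the mean and every replicate; inconclusive = no clear call; three in four hits are not shown here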
Target sequence (Q9HCT0 whole entry, looked up): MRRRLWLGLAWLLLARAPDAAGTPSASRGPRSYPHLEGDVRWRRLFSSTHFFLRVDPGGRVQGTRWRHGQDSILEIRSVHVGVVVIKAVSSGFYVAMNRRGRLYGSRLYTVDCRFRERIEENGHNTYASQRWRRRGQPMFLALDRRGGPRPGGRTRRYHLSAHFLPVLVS
rRNA inh HTS OD600 = recorded beside rRNA inh HTS, whose call it bears; OD600 change, %; measured here: OD600 growth;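 optical density of the mix in the first replicate; 0 = DMSO median and -100 = no signal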
rRNA inh HTS RFP = further read-out of rRNA inh HTS, marked with its call; RFP signal change, %; measured here: RFP humanized mutant strains;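 first replicate; 0 = DMSO median and -100 = no signal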
Numbers without * were called inactive; i = inactive; ? = inconclusive; nt = not tested or not shown. These rows are one share of the data (hit frequency here may not be typical).

no. | SMILES | T cruzi repl | rRNA inh HTS | rRNA inh HTS OD600 | rRNA inh HTS RFP | UCH37 inh | Beta cell apopt | AF4-AF9 inh | Ecoli growth | Bfl-1 A1 inh | FGF22 binding
1 | COc1ccc(CCNC(=O)CN2C(=O)C(=O)N(C3CCCC3)C2=O)cc1OC | nt | nt | nt | nt | 5.4 | -3 | 2.1 | 0.72 | -1.2 | i
2 | O=C1N(c2ccccc2)C(c2ccc(Cl)cc2)N2CCCN12 (centres undefined) | -3 | nt | nt | nt | 2.2 | -2 | nt | 0.72 | 0.0 | nt
3 | O=C(Nc1scc(-c2ccc(F)cc2)c1C(=O)O)c1ccco1 | -8 | nt | nt | nt | 3.3 | -1 | nt | 0.65 | -11 | nt
4 | CCCN1CCN(S(=O)(=O)c2ccc(-n3cnnn3)cc2)CC1 | -4 | 12 | 23 | 3.5 | 3.0 | nt | -3.4 | 0.7 | nt | i
5 | Cn1c(N)c(C(=O)COC(=O)C2CCN(S(=O)(=O)c3cccs3)CC2)c(=O)n(C)c1=O | -19 | -16 | -15 | 2.3 | 2.0 | -4 | -1.2 | 0.68 | -0.6 | i
6 | CCN(CC)C1=CC2=CC(=C(C#N)C#N)CCC2CC1 (centres undefined) | 23 | 96 | -8 | 3.3 | 18 | 5 | -1.2 | 0.74 | 0.1 | i
7 | COc1ccc(CCC(C)Nc2ccc(F)c(F)c2)cc1 (centres undefined) | 20 | nt | nt | nt | 3.3 | 5 | nt | 0.67 | 0.2 | nt
8 | O=c1sc(N2CCN(c3ccc(F)cc3)CC2)nc2ccsc12 | 27 | 1 | -5 | -3.7 | -5.9 | 3 | -0.9 | 0.76 | -1.1 | i
9 | C=CCC1(Cl)C(=O)C(Cl)=C(N2CCN(C)CC2)C1(OC)OC (centres undefined) | 2 | 5 | 1 | 1.9 | 3.8 | -4 | -1.3 | 0.62 | 0.2 | i
10 | Clc1ccc(-n2ncc3c(NCc4cccnc4)ncnc32)cc1Cl | 8 | 7 | -1 | 2.6 | 1.2 | 11 | 0.2 | 0.64 | -5.7 | i
11 | Cc1ccccc1-c1noc(-c2ccccc2C(=O)N2CCCC2)n1 | -18 | nt | nt | nt | 3.5 | nt | nt | 0.73 | 0.1 | nt
12 | CC(Oc1ccccc1)C(=O)N(CCC1=CCCCC1)c1c(N)n(Cc2ccccc2)c(=O)[nH]c1=O (centres undefined) | 13 | -5 | -10 | 11 | 6.0 | 2 | -9.2 | 0.67 | 0.0 | i
13 | CCn1c2ccccc2c2nnc(SCC(=O)c3ccccc3)nc21 | 28 | nt | nt | nt | 2.3 | 10 | nt | 0.69 | -0.4 | nt
14 | CCOc1ccc(C(c2c(NC(=O)c3ccccc3)sc(C)c2C)N2CCN(CCO)CC2)cc1 (centres undefined) | 30 | -42 | -43 | 39 | -5.5 | 3 | 11 | 0.7 | 0.2 | i
15 | Cn1c(=NC(=O)COc2ccccc2)sc2cccc(F)c21 | -14 | 13 | 7 | -1.4 | 1.6 | 4 | 2.4 | 0.7 | -2.2 | i
16 | N#CC1(NC(=O)COC(=O)CCN=C2NS(=O)(=O)c3ccccc32)CCCCC1 | 5 | 11 | 13 | 3.0 | nt | -2 | -0.8 | nt | -0.4 | i
17 | O=C(c1cc(-c2ccc(Cl)cc2)on1)N1CCc2ccccc2C1 | -5 | 4 | 8 | -2.8 | 2.6 | -4 | 2.5 | 0.67 | 0.7 | i
18 | Cc1ccc(NCC(=O)N/N=C\C(Br)=C\c2ccccc2)cc1 | 49 | -1 | -4 | 3.7 | nt | 7 | 8.5 | nt | 0.1 | i
19 | Cc1cccc(OCC(=O)Nc2nc3ccc([N+](=O)[O-])cc3s2)c1 | -6 | nt | nt | nt | 8.0 | -2 | nt | 0.67 | 0.3 | nt
20 | Cc1ccc(C2(CCN)CCOC(C(C)C)C2)cc1 (centres undefined) | 36 | nt | nt | nt | 4.5 | -6 | 4.1 | 0.68 | -0.3 | i
21 | Cc1ccc(CNC(=O)C2(c3cccs3)CCOCC2)cc1 | -1 | nt | nt | nt | 0.9 | -8 | nt | 0.66 | 0.6 | nt
22 | CCN(CC)c1ccc(O)c(C=Nc2ccc(C)c(C)c2)c1 | -4 | 18 | 11 | 2.1 | 6.2 | -5 | 5.9 | 0.65 | -0.2 | i
23 | N#CCSc1nc2ccccc2o1 | 2 | 10 | 10 | 2.4 | 1.1 | 4 | 1.3 | 0.67 | 0.4 | i
24 | O=[N+]([O-])c1ccc(/C=C/c2ccc3cccc([N+](=O)[O-])c3n2)cc1 | 13 | -18* | -14* | 6.6* | 4.6 | 5 | 7.1 | 0.68 | -0.1 | i
25 | CCOC(=O)c1[nH]c(CO)c(C(=O)OCC)c1C | 0 | -3 | -3 | -1.6 | 1.9 | 0 | -0.5 | 0.63 | 1.0 | i
26 | C/C(Cl)=C/Cn1c(N2CCCC2)nc2c1c(=O)n(C)c(=O)n2C | nt | nt | nt | nt | 2.4 | 0 | nt | 0.74 | -0.2 | nt
27 | Cc1ccc(C)c(C2=NNC(=O)CC2)c1 | -13 | 20 | 1 | 3.4 | 0.6 | 1 | -3.2 | 0.67 | 0.7 | i
28 | COc1cccc(N=Nc2ccc3ccccc3c2O)c1 | 2 | 1 | 4 | 58 | 9.1 | -2 | 1.4 | 0.75 | 1.1 | i
29 | O=C(NS(=O)(=O)NC1CCCCC1)C1=C(N2CCCC2)COC1=O | nt | 8 | 21 | 6.0 | 0.7 | 0 | -1.4 | 0.66 | 0.7 | i
30 | Cc1cccn2cc(COc3cccc([N+](=O)[O-])c3)nc12 | -14 | -11 | -8 | -3.0 | 0.6 | nt | 3.2 | 0.68 | -0.6 | i
31 | COc1ccccc1N(C)S(=O)(=O)c1ccc(Cl)c(C(=O)NCCCN2CCOCC2)c1 | 1 | 4 | 5 | -1.6 | 5.8 | 1 | -0.1 | 0.71 | 0.8 | i
32 | CCCN(CC(=O)Nc1ccccc1C)C(=O)c1ccc(NC2CC2)c([N+](=O)[O-])c1 | 3 | 4 | 10 | -1.1 | 4.5 | 0 | -2.1 | 0.66 | 0.3 | i
33 | CCOC(=O)C(NS(=O)(=O)c1ccccc1)(C(F)(F)F)P(=O)(OC(C)C)OC(C)C (centres undefined) | -7 | nt | nt | nt | 1.5 | -6 | nt | 0.66 | -0.1 | nt
34 | CC(C)(C)NC(=O)Cn1nnc(-c2ccc(S(C)(=O)=O)cc2)n1 | -7 | nt | nt | nt | 0.1 | 1 | nt | 0.71 | 0.2 | nt
35 | O=C1/C(=C/C=C/c2ccco2)SC(=S)N1c1ccc(O)cc1 | -6 | 2 | 5 | 5.6 | 4.9 | -4 | 0.2 | 0.71 | 0.1 | i
36 | COc1ccc(-n2ncc3c2CC(C)(C)CC3NC(=O)c2c(C)cc(=O)oc2C)cc1 (centres undefined) | -2 | 2 | -1 | -0.1 | 3.0 | 3 | 2.0 | 0.65 | -0.1 | i
37 | CCOC(=O)COc1ccccc1C(=O)c1cnn(-c2ccccc2)c1 | -12 | -12 | -4 | 3.4 | 0.6 | -5 | -5.1 | 0.64 | -0.8 | i
38 | C=CCNC(=S)NN=C1CCC(c2ccccc2)CC1 (centres undefined) | 1 | -2 | -18 | 3.0 | 2.3 | -5 | 9.1 | 0.69 | 0.7 | i
39 | CC1(C)C2CCC(C2)C1(C)N=C1OC(CCl)CS1 (centres undefined) | 2 | -22* | -11* | 3.0* | 4.2 | -4 | nt | 0.71 | 0.0 | i
40 | CCc1ccc(C(=O)NNc2ccc(S(N)(=O)=O)cc2)cc1 | -2 | 6 | 12 | 0.8 | 3.5 | 1 | 7.7 | 0.6 | -0.6 | i
41 | CCOC(=O)N1CCN(S(=O)(=O)c2cc([N+](=O)[O-])c(C)cc2C)CC1 | -9 | 5 | -1 | 1.4 | 1.5 | -1 | 1.2 | 0.72 | -0.1 | i
42 | O=C(O)CCCC(=O)Nc1cccc2cccnc12 | 11 | nt | nt | nt | -0.5 | -1 | nt | 0.67 | 0.8 | nt
43 | O=C(CN(Cc1ccco1)C(=O)CNS(=O)(=O)c1ccc(Cl)cc1)NCc1ccc(F)cc1 | 18 | nt | nt | nt | 0.8 | 2 | nt | 0.69 | -0.1 | nt
44 | C=CCn1c(SCC(=O)c2[nH]c(C)c(C(=O)OC)c2C)nc2scc(-c3ccc(OC)c(OC)c3)c2c1=O | 29 | nt | nt | nt | -15 | 3 | -2.4 | 0.75 | 0.5 | i
45 | CC(C)(O)C#Cc1ccc(CN2CCN(Cc3ccsc3)C(CCO)C2)s1 (centres undefined) | 4 | nt | nt | nt | 2.2 | -1 | nt | 0.71 | -0.9 | nt
46 | CN1CCN(C(=O)c2ccc(Cn3cc(Cl)cn3)o2)CC1 | -3 | 12 | 13 | -2.0 | 0.3 | -1 | -7.7 | 0.66 | -0.1 | i
47 | O=C(COC(=O)c1n[nH]c(=O)c2ccccc12)NCc1ccccc1 | nt | 9 | 11 | 0.9 | -0.5 | -4 | 0.5 | 0.69 | 1.2 | i
48 | Cc1ccsc1C(=O)NC(C)c1ccc2c(c1)OCO2 (centres undefined) | 7 | nt | nt | nt | 3.0 | -5 | nt | 0.72 | -0.7 | nt
49 | NC(=O)C1CCCN(C(=O)c2cccc(S(=O)(=O)N3CCCCCC3)c2)C1 (centres undefined) | nt | 3 | -4 | 1.0 | 1.5 | -1 | ? | 0.72 | ? | i
50 | CN(CC(=O)Nc1ccccc1C(F)(F)F)C(=O)CSc1nc(N)cc(N)n1 | nt | nt | nt | nt | 6.7 | -6 | -3.0 | 0.65 | -0.1 | i
51 | CCc1ccccc1N1CC(C(=O)Nc2cc(S(=O)(=O)N3CCCC3)ccc2Cl)CC1=O (centres undefined) | nt | -6 | 1 | -0.9 | 4.4 | 9 | 4.3 | 0.71 | 0.1 | i
52 | CCCCc1ccc(NC(=O)COCC)cc1 | -6 | nt | nt | nt | 6.0 | 5 | nt | 0.69 | -2.3 | nt

Complete entries as entered above.
CCOC(=O)N1CCN(S(=O)(=O)c2cc([N+](=O)[O-])c(C)cc2C)CC1 reads T cruzi repl: -9; rRNA inh HTS: 5; rRNA inh HTS OD600: -1; rRNA inh HTS RFP: 1.4; UCH37 inh: 1.5; Beta cell apopt: -1; AF4-AF9 inh: 1.2; Ecoli growth: 0.72; Bfl-1 A1 inh: -0.1; FGF22 binding: i
O=c1sc(N2CCN(c3ccc(F)cc3)CC2)nc2ccsc12 reads T cruzi repl: 27; rRNA inh HTS: 1; rRNA inh HTS OD600: -5; rRNA inh HTS RFP: -3.7; UCH37 inh: -5.9; Beta cell apopt: 3; AF4-AF9 inh: -0.9; Ecoli growth: 0.76; Bfl-1 A1 inh: -1.1; FGF22 binding: i

High-throughput results: PubChem, several laboratories
